Screening results: PubChem BioAssay, National Center for Advancing Translational Sciences (NCATS)
VDR inh: inhibitors of human vitamin D receptor. Potency, µM, without a hit: max response, negative = inhibition, most hits filed as inhibitors. AID 504847. VDR-SRC2-3 peptide fluorescence polarization, 2 h. 400,000 compounds, 0.93% hits; active means well fitted inhibition curve with a large enough effect; inconclusive means small, poorly fitted or top-dose-only effect, or another doubt; inactive means no such curve, though single readings can be large or run the other way; further: series mostly up to about 120 µM
Target sequence (P11473 whole entry, looked up): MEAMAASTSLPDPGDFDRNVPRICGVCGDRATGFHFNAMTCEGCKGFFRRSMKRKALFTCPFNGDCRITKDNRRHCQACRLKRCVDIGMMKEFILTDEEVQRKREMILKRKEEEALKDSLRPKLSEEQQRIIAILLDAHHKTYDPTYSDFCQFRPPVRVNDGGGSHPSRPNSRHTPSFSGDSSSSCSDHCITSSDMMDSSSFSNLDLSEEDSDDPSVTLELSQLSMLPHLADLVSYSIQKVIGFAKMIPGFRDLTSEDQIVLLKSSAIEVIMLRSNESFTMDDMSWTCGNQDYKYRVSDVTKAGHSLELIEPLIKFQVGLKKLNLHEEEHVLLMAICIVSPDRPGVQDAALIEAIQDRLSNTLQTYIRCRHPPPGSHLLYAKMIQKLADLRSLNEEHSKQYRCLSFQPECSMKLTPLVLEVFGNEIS
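Fluorescence polarization assay of small-molecule disruption of VDR binding to coregulator peptide SRC2-3. Compounds and controls pin-transferred, then read after 2 h incubation at ambient room temperature.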
Numbers without * were called inactive; ? = inconclusive; & = joins results of further samples. On the % scale 0 is the no-effect control and ±100 the full control effect; potency means the concentration at half of the fitted maximal effect. Only part of the results is shown; the hit share may differ from the screen's.

molecule | VDR inh
COc1ccc(N2CC(C(=O)Nc3ccc(S(=O)(=O)N4CCCC4)cc3)CC2=O)cc1 (configuration not stated) | 18.0%
C/C(=N/Nc1ccc([N+](=O)[O-])cc1)c1c[nH]c2ccccc12 | 2.5%
Cc1ccnc(NC(=O)CN2C(=O)c3ccccc3S2(=O)=O)c1 | 10.5%
O=[N+]([O-])c1ccc(O)c(C=NNc2ccc(S(=O)(=O)O)cc2)c1 | -12.4%
O=C(c1ccc(F)cc1)N1C2CCC1CC(O)(c1ccccc1F)C2 (configuration not stated) | 15.4%
Cc1ccc(Nc2nc(N)c([N+](=O)[O-])c(NCc3ccccc3)n2)cc1 | 0.2%
O=S1(=O)N=C(N/N=C/c2cccs2)c2ccccc21 | -5.3%
O=C(Nc1cccnc1)c1ccc(NC(=O)c2ccco2)cc1 | 18.4%
Cc1ccc(CNC(=O)CSC2=Nc3ccccc3C3=NC(C)C(=O)N23)cc1 (configuration not stated) | 1.5%
CC(=O)N(c1cccc(C)c1)S(=O)(=O)c1ccc(Cl)cc1 | 26.0%
CCCCNC(=O)C1CCC(Cn2c(=O)c3sccc3n(Cc3ccccc3)c2=O)CC1 (configuration not stated) | 2.7%
COc1ccc(-c2nc(CS(=O)CC(=O)NCc3ccco3)c(C)o2)cc1OC (configuration not stated) | -11.2%
C[C@@H]1C(=O)O[C@H]2C[C@@]34[C@H]5C[C@@H](C(C)(C)C)[C@]36[C@H](OC(=O)[C@H]6O)O[C@]4(C(=O)O5)[C@]21O | 7.4%
Cc1ccc(-c2nnc(Nc3ccc(CC(N)=O)cc3)c3ccccc23)cc1S(=O)(=O)NCCO | -1.0%
CCC1CN(C(=O)N2CCC(C(=O)NCc3cccc(C)c3)CC2)c2ccccc2O1 (configuration not stated) | -3.2%
COC(=O)CNc1nc(-c2cccnc2)nc2ccccc12 | 9.3%
CC(=O)C1C(c2ccc(F)cc2)NC(=O)NC1(O)C(F)(F)F (configuration not stated) | 8.4%
Cc1ccn2cc(CCNC(=O)Cc3cccs3)nc2c1 | -15.4%
COCCOc1ccc(C(F)(F)F)cc1NC(=O)c1ccccc1F | -4.0%
C[C@H](CO)N1C[C@H](C)[C@@H](CN(C)C(=O)Nc2ccc(C(F)(F)F)cc2)Oc2ccc(NC(=O)Nc3ccc(C(F)(F)F)cc3)cc2C1=O | -4.3%
O=S(=O)(Nc1ccc(N2CCCCC2)cc1)c1ccc(F)c(F)c1 | 4.5%
CCN(CC)C(=O)COc1ccc2c(-c3ccccc3)cc(=O)oc2c1 | 8.0%
Cn1c(N2CCOCC2)nc2c1c(=O)n(Cc1ccc(Cl)cc1)c(=O)n2C | -6.6%
Cc1c(C)c2ccc(O)c(CN3CCN(C)CC3)c2oc1=O | 6.2%
Cc1cc(OC(C(=O)O)c2ccccc2)c2c(C)c(Cc3ccccc3)c(=O)oc2c1 (configuration not stated) | -6.1%

Five structures already listed, arranged by count of non-hydrogen atoms, largest number first:
molecule | VDR inh
Cc1ccc(-c2nnc(Nc3ccc(CC(N)=O)cc3)c3ccccc23)cc1S(=O)(=O)NCCO | -1.0%
Cc1cc(OC(C(=O)O)c2ccccc2)c2c(C)c(Cc3ccccc3)c(=O)oc2c1 (configuration not stated) | -6.1%
Cn1c(N2CCOCC2)nc2c1c(=O)n(Cc1ccc(Cl)cc1)c(=O)n2C | -6.6%
O=C(Nc1cccnc1)c1ccc(NC(=O)c2ccco2)cc1 | 18.4%
Cc1ccn2cc(CCNC(=O)Cc3cccs3)nc2c1 | -15.4%

The list goes on:
molecule | VDR inh
COC1CCCN(Cc2nc(Cc3ccccc3F)no2)C1 (configuration not stated) | 15.7%
CCOC(=O)C1CCN(C(=O)C2CCN(S(=O)(=O)N3CCC4(CC3)OCCO4)CC2)CC1 | 4.0%
CCOC(=O)N1CCN(C(=O)CCSc2ccc(Cl)cc2)CC1 | -6.8%
COc1ccc(N2CCN(C(c3ccccc3OC)c3nnnn3C3CCCC3)CC2)cc1 (configuration not stated) | -15.5%
CCN1CCN(C(=O)c2cc3c(OC)c(OC)c(OC)cc3[nH]2)CC1 | -5.5%
O=C(COC(=O)c1cccnc1Cl)Nc1ccccc1OC(F)F | 3.7%
Cc1nc2ccc(S(=O)(=O)NCC(=O)Nc3ccc(C)c(Cl)c3)cc2s1 | -3.1%
Cc1cc(OCC(=O)OCC(=O)N2CC(C)CC(C)C2)ccc1Cl (configuration not stated) | 6.9%
S=C(NCc1ccc(Cl)cc1)N1CCN(c2ccccn2)CC1 | -6.6%
Cc1ccc2ccccc2c1NC(=O)Cn1nnc(-c2cccnc2)n1 | -1.0%
Cc1cc(NC(=O)CCCS(=O)(=O)c2nc(-c3cccs3)cc(C(F)(F)F)n2)no1 | 17.8µM*
CC(=O)c1sc2ccccc2c1OC(=O)c1ccco1 | -2.5%
Nc1cc(C(=O)O)ccc1Sc1ccccc1C(=O)O | ?
O=C(c1cc(-c2ccccc2)nn1CC1CC(c2cccnc2)=NO1)N1CCOCC1 (configuration not stated) | 7.5%
N=C1C(c2ccccc2)=C(O)CN1c1cccc(O)c1 | -0.4%
Cc1ccc(NC(=O)COC(=O)c2cccnc2Cl)cc1S(=O)(=O)N1CCOCC1 | 12.5%
COc1ccc(C2(CNC(=O)c3ccco3)CCOCC2)cc1 | 11.9%
CCOC(=O)c1c(C)nn(-c2ccc(NC(=O)/C=C/C(=O)O)cc2)c1C | -9.7%
O=C1CN(C(=O)N[C@@H](Cc2ccccc2)C(=O)N[C@H](Cc2ccccc2)C(=O)O)c2ccccc2N1 | -5.4%
COc1ccc(/C=C/C(=O)Nc2cccc(F)c2)cc1S(=O)(=O)N1CCOCC1 | 3.0%
CCc1ccc(CNC(=O)Cc2ccc(NC(=O)C3=C(C)OCCS3)cc2)cc1 | 15.8%
CC(C)(C)n1ncc2c(=O)n(CC(=O)NC3CCCCC3)cnc21 | -3.2%
O=C(NCCNC(=O)c1ccccn1)c1cccc(F)c1 | -25.7%
CCNc1nc(SCCOc2ccc(Br)cc2)nc(N(C)C)n1 | -4.5%
CN(C1CCCCC1)S(=O)(=O)c1ccc(Cl)c(C(=O)O)c1 | ?
CC(C)C(=O)NC(NCC1CCCO1)C(Cl)(Cl)Cl (configuration not stated) | 3.8%
CCC1CCCCN1C(=O)/C=C/c1ccc2c(c1)OCO2 (configuration not stated) | -6.3%
COC(=O)CCc1sc(NC2CCCCC2)nc1-c1ccc(OC)cc1 | -8.0%
CCOc1ccc(-c2cc(OC(=O)c3ccccc3)c3c(C)oc(C)c3c(=O)c2)cc1 | ?
O=C1NC[C@H](c2ccccc2)N(CC2CCCCC2)C1=O | 0.2%
O=C(CSc1nnc(-c2ccc(Cl)cc2)n1CC1CCCO1)NC1CCS(=O)(=O)C1 (configuration not stated) | -12.4%
O=C(Nc1cccc2nsnc12)c1cccs1 | -17.0%&12.1%
N#CCCN=C(NS(=O)(=O)c1ccccc1)c1ccccc1 | 6.4%
COc1ccc2nc(NC(=O)C3CCN(S(=O)(=O)c4cccnc4)CC3)sc2c1 | -13.7%
CC(Oc1ccc(Cl)cc1)C(=O)N1CCCc2ccccc21 (configuration not stated) | 4.6%
Cc1nc(C)c(CCNC(=O)c2cccc(Cl)c2)s1 | -9.0%
CCOC(=O)C(CC)n1cnc2sc3c(c2c1=O)CCC3 (configuration not stated) | 11.4%
COCCCn1cn[nH]c1=S | ?
COc1cc(/C=C/C(=O)OCC(=O)Nc2ccc3c(c2)OCO3)ccc1O | -4.7%
CC1Cn2c(nnc2-c2cccc(N)c2)S1 (configuration not stated) | -17.7%
COC(C)c1oc2c(C)c3oc(=O)cc(C)c3cc2c1C (configuration not stated) | ?
O=c1c2ccccc2nc2n1CCC2O (configuration not stated) | 1.1%
Cn1c(SCC(=O)Nc2nnc(-c3ccccc3)o2)nnc1C1CC1 | -5.4%
COc1ccccc1CNC(=O)C(=O)NCC(c1cccs1)S(=O)(=O)c1ccccc1 (configuration not stated) | 1.1%
CCC1Oc2ccc(C)cc2N(CC(=O)NCc2cccc(OC)c2)C1=O (configuration not stated) | 4.6%
CN(C)/C=C(\C=O)c1ncc(C(F)(F)F)cc1Cl | 3.5%
Cc1ccc(S(=O)(=O)SC/C=C/CSS(=O)(=O)c2ccc(C)cc2)cc1 | 44.7µM*
O=C1NC(c2ccc(F)cc2)Oc2ccccc21 (configuration not stated) | 5.8%
CCN(CC)CCOCCOc1cc(C)c(Cl)c(C)c1 | -4.7%
CN(CCOC(=O)/C=C/c1ccccc1)C(C)(C)C | -11.4%

Other compounds.
molecule | VDR inh
Cc1onc(-c2ccccc2)c1C(=O)OCC(=O)Nc1ccc2c(c1)OCO2 | 2.2%
O=C(COc1ccc(Cl)cc1Cl)NCCCN1CCOCC1 | 11.1%
C=CCOc1nc2c(c(=O)n(C)c(=O)n2C)n1Cc1ccccc1 | 18.4%
CSc1ncc(Cl)c(C(=O)Nc2cccc(C)c2)n1 | 7.4%
Cc1ccc(S(=O)(=O)NC2=NCCCCC2)cc1 | -10.6%
COc1cc(CNC(C)(C)CO)cc(Br)c1OCc1ccccc1 | -1.4%
COc1ccc(OC(=O)CCCN2C(=O)c3ccccc3C2=O)cc1 | 4.1%
Cc1ccc(NC(=O)COC(=O)CCc2c(C)nc3ncnn3c2C)cc1C | -5.6%
CCOC(=O)C1CCN(S(=O)(=O)c2cn(C)c(=O)n(C)c2=O)CC1 | 10.1%
CC1=C(C(=O)OC(C)C)C(c2cccs2)N2C(=O)CCSC2=N1 (configuration not stated) | 3.3%
Cn1c(O)c(N=NC(=O)Cn2ccc(C(F)(F)F)n2)c2ccccc21 | -17.2%
CCOn1c(=O)c(=O)n(OCc2ccccc2)c2ccccc21 | 13.0%
Cc1cccc(CNC(=O)C2CCN(c3nnc(-n4c(C)ccc4C)s3)CC2)c1 | 8.8%
CCC(C)(C)C1CCc2c(sc(NC(=O)c3cccs3)c2C(N)=O)C1 (configuration not stated) | 5.0%
COC(=O)c1ccc(CSc2nc(C)nc3sc(C)c(C)c23)o1 | 3.8%
CCC(=O)Nc1nc2c(OC)ccc(C)c2s1 | 17.3%
COC(=O)c1cn(NC(=O)c2ccc(OC)c(OC)c2)c(=O)c2ccccc12 | -0.6%
COC(=O)/C=C/c1cnc2ccccc2c1 | -24.5%
COc1ccc(Cn2cc3c(-c4ccc(F)cc4)nnc-3c3cc(OC)c(OC)cc32)cc1 | 0.5%
Cc1ccc(C(c2sc3ncnn3c2O)N2CCC(C)CC2)cc1 (configuration not stated) | -14.7%
CC(=O)Nc1ccc(OC(=O)COc2ccc(Br)cc2)cc1 | -3.8%
O=C(COc1nncc2ccccc12)NCCC1=CCCCC1 | 6.1%
Cn1nc(C(=O)N2CCOCC2)c([N+](=O)[O-])c1C(=O)N1CCOCC1 | -30.0%
O=C1CN(C(=O)c2cc3ccccc3oc2=O)C(c2ccc(F)cc2)c2cc(F)ccc2N1 (configuration not stated) | -9.8%
COc1cc(C(=O)N2CCN(C(=O)c3cc(-c4ccc(Br)cc4)n[nH]3)CC2)cc(OC)c1OC | -18.7%
C=CCn1c(SCC(=O)NCC2CCCO2)nnc1C1CCCCC1 (configuration not stated) | -10.0%
CC1CC(C)CN(c2ccc([N+](=O)[O-])cc2-c2nn[nH]n2)C1 (configuration not stated) | -6.4%
CN1CCN(C(=O)CCS(=O)(=O)c2cc3c(cc2Cl)NC(=O)CO3)CC1 | -7.3%
O=C(NC1CCN(S(=O)(=O)c2ccc(F)cc2)CC1)c1cccnc1 | 2.9%
CC(C)c1ccc(N2C(=O)CC(NNC(=O)c3cccnc3)C2=O)cc1 (configuration not stated) | 8.9%
CC(=O)Oc1ccc2ccccc2c1C(NC(=O)C(C)C)c1cccc([N+](=O)[O-])c1 (configuration not stated) | -21.1%
Cc1ccnc(NS(=O)(=O)c2ccc(NC(=O)c3ccc(Cl)cc3[N+](=O)[O-])cc2)n1 | -10.2%
COc1cccc(-n2c(SCC(=O)N3c4ccccc4CC3C)nnc2-c2ccco2)c1 (configuration not stated) | 7.5%
CCOc1cc(/C=C2/SC(=S)N(CC(=O)O)C2=O)ccc1OC(=O)c1cccs1 | ?
CC(=O)Nc1ccc(NC(=O)CSc2nnc(C)n2-c2ccccc2)cc1 | 1.4%
CCc1ccccc1NC(=O)NNC(=O)CCc1ccc(OC)cc1 | 11.1%
COC(=O)CN(c1nc(C)c(Br)c(OC)n1)S(=O)(=O)c1ccccc1 | -22.3%
Cc1cccc(C)c1NC(=O)c1c[nH]c2ccccc12 | 5.4%
COc1ccccc1/C=N/NS(=O)(=O)c1ccccc1 | -10.2%
c1ccc(-c2cc3c(N4CCCCC4)ncnc3s2)cc1 | -5.9%
Nc1ncnc2c1ncn2[C@@H]1O[C@H](CNCc2cn(CC(=O)NC3CC3)c3ccccc23)[C@@H](O)[C@H]1O | -12.0%
COc1cc([N+](=O)[O-])ccc1-c1ccc(C(=O)Nc2ccc(NC(C)=O)cc2)o1 | -5.6%
Cn1c(N)c(C(=O)CSc2nc3ccccc3c(=O)n2Cc2ccccc2)c(=O)n(C)c1=O | 10.8%
O=C(CSc1nc2ccccc2s1)Nc1nccs1 | -4.2%
COc1ccc(NC(=O)c2[nH]nc3c2CSc2ccccc2-3)c(OC)c1 | 13.7%
O=C(c1ccncc1)N1N=C(C2CC2)CC1(O)C(F)(F)F (configuration not stated) | -12.2%
Cc1cc2c(cc1C)C(c1cccc(F)c1)CC(=O)N2 (configuration not stated) | -12.8%
CCOC(=O)N1CCN(C2CCCN(C(=O)c3cccc(Cl)c3)C2)CC1 (configuration not stated) | -12.1%
CCCCN1C(=O)C(=O)N(CC(=O)Nc2cccc(C(C)=O)c2)C1=O | -1.1%
Cc1ccc(OCC(=O)Nc2ccc(N3CCCC3)cc2)cc1C | -12.5%
